# Rce1 inhib: yeast Rce1p protease inhibitors, primary screen, biochemical, fluorescence, cell-free homogeneous; AID 2563, 2010; calls only; 290,000 tested, 0.27% active; yeast membranes, quenched prenylated peptide cleavage fluorescence;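 active means fall in fluorescence gain of 50% or more versus controls, with final raw signal at or below 3038400; inconclusive means same 50% fall but final raw signal above 3038400; inactive means fall in fluorescence gain under 50%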;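 further: plate controls were neutral control wells for no effect and wells lacking membranes for full effect; tested at 10 µM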
# Target sequence (Q03530 whole entry, looked up): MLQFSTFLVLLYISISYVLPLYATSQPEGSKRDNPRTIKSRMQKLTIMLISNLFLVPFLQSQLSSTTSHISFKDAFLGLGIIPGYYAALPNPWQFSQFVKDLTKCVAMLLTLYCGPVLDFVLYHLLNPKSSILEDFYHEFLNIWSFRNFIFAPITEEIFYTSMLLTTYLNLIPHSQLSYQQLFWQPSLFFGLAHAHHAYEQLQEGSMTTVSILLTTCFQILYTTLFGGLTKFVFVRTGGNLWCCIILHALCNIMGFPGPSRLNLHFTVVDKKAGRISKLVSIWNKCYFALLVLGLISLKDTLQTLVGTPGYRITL
# PABP polyA inh: PABP poly(A) RNA binding inhibitors, primary screen, biochemical, fluorescence polarization, uHTS. Polyadenylate-binding protein 1 (Homo sapiens), P11940. inhibition, % at 35 µM. 290,000 tested, 1% active. AID 2014, 2009;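 active means 50% or more with normal probe brightness, or confirmed in later tests; inconclusive means above 50% with abnormal brightness, or retests that disagree; inactive means below 50% or failed in later tests; about a fifth of its hits are not listed in these tables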;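 further: calls also rest on retests at 20 µM and on dose response follow-up; controls were probe without protein and protein plus probe with vehicle; some compounds called inactive have numbers as strong as hits; many hits fall short of the cut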
# MT1-MMP act inh: blockers of MT1-MMP proenzyme processing, primary screen, HT1080 RFP-PRO-GFP cells, GFP/RFP fluorescence; Matrix metalloproteinase-14 (Homo sapiens), P50281; GFP/RFP ratio fluorescence, overnight; percent of plate control window, DMSO zero; GFP/RFP ratio change, % at 20 µM; 360,000 tested, 0.061% active; AID 651647, 2012;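 active means GFP/RFP ratio change of at least 30% with cell ATP level not reduced by more than half and red fluorescence within 50% of control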; further: strong numbers were not always called active
#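 Assay system: RFP-PRO-GFP reporter HT1080 cells; read-out basis: GFP/RFP fluorescence ratio; benchmarks: DMSO wells and RFP-L50D-GFP cells; doses: 20 µM single dose, 1% DMSO; schedule: overnight cell settling, then overnight compound exposure, 37 °C, 5% CO2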
# UUG fidelity: modulators of yeast start codon fidelity, primary screen, whole organism, S. cerevisiae, single point, plate reader; S. cerevisiae UUG-firefly luciferase reporter, luminescence/redox ratio; activity score, % at 18.7 µM; 350,000 tested, 0.13% active; AID 602363, 2012;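 active means replicate mean at a twofold rise or more, about +100% in these data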;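 further: firefly luciferase made from a UUG start codon reports start codon fidelity; reporter light over untreated wells divided by growth signal over untreated wells; some hits fall short of that in this replicate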
# CSC inhib: cancer stem cell viability inhibitors, primary screen, luminescence. cancer stem cell-like cells viability. inhibition, % at 7.5 µM. 300,000 tested, 1.1% active;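 active means mean at 75% or more and at least half the replicates too; inconclusive means mean and replicates disagree; tested in HMLE shEcad cells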;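 further: 0% = median of negative and 100% = median of positive control wells; the first replicate is given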
# eIF4H inh: human eIF4H binding inhibitors, primary screen, translation initiation inhibitor project, biochemical, uHTS, fluorescence polarization. eIF4H fluorescence polarization binding assay. inhibition, % at 35 µM. 290,000 tested, 0.94% active;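 active means 50% or more with normal probe brightness, or confirmed in later tests; inconclusive means above 50% with abnormal brightness, or retests that disagree; inactive means below 50% or failed in later tests; about a fifth of its hits are not listed in these tables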;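 further: calls also rest on retests at 20 µM and on dose response follow-up; 0% = protein and probe with vehicle and 100% = probe without protein; strong numbers were not always called active; many hits fall short of the cut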
# Env fusion inh: inhibitors of HIV-1 Env-driven cell-cell fusion, primary screen, HeLa-JRFL effector, CEM21 target cells, luciferase | inhibition, % at 12.3 µM | 360,000 tested, 1.1% active;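 active means mean replicate inhibition score of at least 50 and every replicate individually at or above 50; inconclusive means only one of the two criteria met; inactive means mean below 50 and not all replicates reaching 50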;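 further: 0% = plate neutral controls and 100% = maraviroc near 300 nM; one replicate is shown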
# eIF4H inh retest: recorded beside eIF4H inh, whose call it bears; inhibition, %; compound at 20 µM; confirmation average;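 mean of two retest wells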
# PABP polyA inh retest: recorded beside PABP polyA inh, whose call it bears; inhibition, %; compound at 20 µM; confirmation repeats;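 mean of two retest wells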
# MT1-MMP act inh RFP: second read-out of MT1-MMP act inh, no call of its own (marks repeat the call); RFP signal change, %; measured here: RFP expression control read;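 0 = vehicle wells; hits needed this value within 50% of zero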
# Active calls of the source: *; i = inactive; u = inconclusive; x = no result given; & = joins results of further samples; [ ] = dose if it differs, or a comment.
SMILES,Rce1 inhib,PABP polyA inh,MT1-MMP act inh,MT1-MMP act inh RFP,UUG fidelity,CSC inhib,eIF4H inh,Env fusion inh,others
CC(=O)c1cc(CN2CCN(C(C)C)C(CCO)C2)cs1 (centres undefined),i,-4.4,-2.6,2.9,x,-3.9,13.3,-1.4,
Clc1ccc(-c2ccnc(Oc3cc(Cl)ccc3Cl)n2)cc1,i,0.9,2.7,-7.7,x,12.0,-5.5,x,
CSc1ccc2nnc(-c3cccc(F)c3)n2n1,i,5.4,-4.7,-4.4,-21.3,x,-6.8,-24.2,
CC1CCC(N2CCNCC2)CC1 (centres undefined),i,2.7,3.9,-5.3,x,-6.9,-2.3,4.7,
CC(C)(C)OC(=O)N1CCC(c2c(C(=O)NCC3CCN(C4CCCC4)C3)cnn2-c2cccc(Cl)c2)CC1 (centres undefined),i,-4.6,2.1,2.2,-12.0,29.3,-5.0,8.1,
Nc1cc(Cl)nc(N/N=C/c2c(O)ccc3ccccc23)n1,i,1.9,-4.7,-3.2,x,2.6,7.1,x,
Cc1ccccc1Cn1nc(C)c(NC(=O)c2noc3c2CCc2ccccc2-3)c1C,i,-10.6,0.4,-8.1,-22.6,5.1,2.3,7.3,
CCN(Cc1ccccc1)S(=O)(=O)c1c(C)[nH]c(C)c1C(=O)N1CCCCC1,i,-5.7,-1.4,0.7,2.9,-6.3,-5.0,21.4,
Cc1cc(N2C(=O)C(O)=C(C(=O)c3ccc(C)o3)C2c2cccc(Cl)c2)no1 (centres undefined),x,x,4.1,1.2,-9.5,x,x,u,
CC1CCN(c2nc3ccc(C(=O)N4CCN(Cc5ccc6c(c5)OCO6)CC4)cc3s2)CC1,i,0.6,-5.4,-22.4,-45.7,62.1,-5.2,12.6,
Cc1ccccc1Cn1cc(NC(=O)c2noc3c2CC(C(C)(C)C)CC3)cn1 (centres undefined),i,-2.1,5.7,-3.1,-16.3,9.7,7.3,x,
COc1ccc(NC(=O)Nc2ccc3c(c2)C(=O)N([C@H](C)CO)C[C@H](C)[C@@H](CN(C)S(=O)(=O)c2ccccc2)O3)cc1,x,x,-1.9,1.5,-2.1&-19.8,x,x,-6.2[16.7 µM],
Cn1nc(C(=O)NCC(=O)Nc2ccc(F)c(F)c2)ccc1=O,x,x,5.3,2.7,1.6,x,x,-11.1,
CCc1ccc(-c2cc(C(=O)NCc3ccccn3)c3ccccc3n2)cc1,i,22.0,-0.2,-2.5,x,-7.0,0.3,-29.8,
Cc1ccc(/C=C2\SC(=S)N(NS(=O)(=O)c3ccc(C)cc3)C2=O)cc1,i,12.8,-4.4,-0.6,-4.5,13.0,10.7,8.1,
COC(=O)C(N)CCCCN (centres undefined),i,x,8.8,6.9,-10.3,2.4,x,x,
CC(=O)c1cc2c(cc1NC(=O)Cn1nc(C)c(C)c(C#N)c1=O)OCO2,i,x,-1.9,3.2,x,x,x,5.0,
CCn1c(SCC(=O)NC2CC2)nnc1C(C)Oc1ccccc1 (centres undefined),i,11.5,2.5,5.9,-23.3,4.2,8.3,7.0,
CN(Cc1ccccc1)C(=O)CCC1CCN(C(=O)c2ccco2)CC1,x,x,3.7,-1.0,-35.7,x,x,-14.1,
Cc1ccc2oc(C(=O)N(Cc3ccccc3)C3CCS(=O)(=O)C3)c(C)c2c1 (centres undefined),i,-4.1,1.3,0.4,-9.3,x,8.0,8.9,
CCOc1ccc(NC(=O)CN(C)C(=O)C2=COCCO2)cc1OCC,i,x,8.2,-0.5,x,-13.7,x,x,
CC(=O)NCc1ccc(C(=O)CCl)cc1,i,-9.3,-0.7,4.3,-7.1,-1.4,1.1,4.0,
COc1cc(OC)cc(C(=O)Nc2cccc(NC(=O)c3ccccc3)c2)c1,i,2.6,1.6,-0.7,x,-6.5,4.7,-7.2,
CCOc1ccc(NC(=O)NC(=O)N(C(C)C)S(C)(=O)=O)cc1,i,0.8,-1.1,2.3,-14.5,-5.4,-4.1,-14.8,
CCOC(=O)C1CCN(S(=O)(=O)c2ccc(C)c(C)c2)CC1,i,8.1,3.4,0.9,x,-6.2,0.8,13.1,
O=C(NCc1ccc(Cl)cc1)c1ccncc1,i,17.0,-0.4,-10.5,-5.2,2.0,2.0,-16.1,
Cc1c(Br)c([N+](=O)[O-])nn1C(C)C(=O)N1CCc2ccccc2C1 (centres undefined),i,9.2,0.4,3.9,6.7,11.4,4.8,6.1,
CCC(=O)N(Cc1cc(=O)[nH]c2ccccc12)c1ccc(OC)cc1,i,-4.6,-2.8,-2.2,4.5,-16.3,-4.1,-3.1,
O=C(COc1cc(=O)n2c(n1)SCCC2)c1ccccc1,i,-3.1,-0.4,2.2,-31.8,-3.3,-11.1,-7.3,
Cc1ccc(CCS(=O)(=O)c2ccc(C(C)(C)C)cc2)cn1,i,3.7,-1.1,-18.7,13.4,-10.0,-3.0,u,
COc1ccc(CCN=Cc2c(C)[nH]n(-c3ccc([N+](=O)[O-])cc3)c2=O)cc1OC,i,-3.9,2.1,4.0,x,15.5,-3.3,-13.6,
COc1ccc(C(=O)NCC(=O)N/N=C/c2c(C)[nH]c3ccccc23)cc1OC,i,5.7,-1.4,2.2,x,-11.8,-6.1,1.9,
COc1ccc(-c2cn3cccnc3n2)cc1Br,i,2.0,8.3,3.6,x,-15.2,-8.8,-1.9,
CCCOc1ccc(CNC(=O)C2CCN(c3nn4c(=O)cc(C)nc4s3)CC2)cc1,i,-8.0,-1.3,-6.2,-17.6,0.2,-10.0,-0.4,
CCn1c(CNC(=O)c2ccccc2)nnc1SCC(=O)N1CCN(c2ccccc2)CC1,i,6.0,-5.8,-5.7,-10.9,-14.6,1.8,-14.2,
COC(=O)C1=C(N)Oc2cc(C)n(C)c(=O)c2C1c1ccc(Cl)cc1 (centres undefined),i,3.2,1.5,2.1,-1.3,-15.6,-6.6,-44.3,
COc1cc2[nH]c(C(=O)Nc3ccc(F)cc3)cc2c(OC)c1OC,i,-7.4,1.8,-5.5,x,0.8,-12.1,-12.8,
Cc1ccc(C)n1-c1ccc(C(=O)NC2CCN(Cc3ccccc3)CC2)cc1,i,10.8,4.7,4.0,-1.0,9.0,1.8,12.0,
COc1ccc(C(=O)Nc2cccc(OC(=O)c3ccco3)c2)cc1,i,4.7,2.3,0.5,-32.7,2.6,-0.1,-78.4,
Cc1ccc(CSCc2ccc(C(=O)O)o2)cc1,i,1.2,-2.6,0.8,-10.1,-10.3,-11.2,-12.0,
Cc1ccc(OCC(=O)Nc2ccccc2Sc2ccccc2)c([N+](=O)[O-])n1,i,-3.5,1.2,-2.7,x,-7.9,-2.0,13.8,
O=[N+]([O-])c1cccc(C=Nc2cccc3ccccc23)c1O,i,27.7,2.7,-0.3,-20.0,23.1,41.8,7.4,
Cc1noc(C)c1S(=O)(=O)Nc1ccc(C(=O)NCCc2ccccc2)cc1,x,8.3,1.6,-2.8,20.2,-9.9,3.1,5.4,
CCC(c1nnnn1Cc1ccco1)N(Cc1cc2cc(OC)ccc2[nH]c1=O)C1CCCCC1 (centres undefined),i,36.9,-12.7,13.0,5.9,7.7,20.5,x,
CC(=O)NC(=S)NNC(=O)CCc1ccccc1,i,-1.5,1.7,5.6,x,3.1,9.0,-3.7,
Cc1cn([C@H]2C[C@H](O)[C@@H](CNC(=O)[C@H](N)Cc3cccnc3)O2)c(=O)[nH]c1=O,x,x,0.8,6.1,-27.2,x,x,5.3,
Cn1c(=O)c(C(=O)CN2CCCc3ccccc32)c(N)n(Cc2ccccc2)c1=O,i,11.0,-9.8,14.4,-13.7,-13.1,20.8,x,
CC/C(=N\O)c1ccc(OC)c(OC)c1,i,2.8,1.8,1.1,-21.3,-6.4,-11.8,x,
COc1ccc(C2OC(=O)CC2C(=O)NCc2ccccc2Cl)cc1OC (centres undefined),i,20.6,-3.0,1.0,4.8,-2.7,-7.8,9.2,
CCOC(=O)COc1ccc(S(=O)(=O)N2CCc3ccccc3C2)cc1,i,-15.8,-1.5,1.3,9.6,-4.8,4.6,-14.3,
Cc1c2c([n+]3n1CCC3)CC(C)(C)CC2=O,i,10.7,-2.6,1.9,-20.6,0.0,0.7,x,
CCCCn1c(=O)c2ccccc2c2ccccc2c1=O,x,-6.5,-17.9,-5.2,27.8,9.3,-4.4,17.8,
CCC1CCCCN1CCCNS(=O)(=O)c1ccc2c(c1)oc(=O)n2C (centres undefined),i,34.5*,-21.0,9.2,-12.4,21.6,67.0,8.1,eIF4H inh retest=15.6;PABP polyA inh retest=115.6*
Clc1cccc(CN2CCC3CC2c2cc(N4CCCCC4)ccc23)c1 (centres undefined),x,x,2.9,4.6,-7.8,x,x,4.6,
CCOC(=O)C1=C(C)NC(=O)NC1/C=C/c1ccccc1 (centres undefined),i,5.7,9.0,4.9,-10.9,0.4,-1.8,15.3,
CCc1c(C)nc2cc(-c3ccc(Cl)cc3)[nH]n2c1=O,x,19.5,-6.5,-0.4,0.5,-2.7,-5.5,-56.5,
Cc1ccc(NC(=O)Nc2ccc(Cl)c(Cl)c2)nc1,i,-1.0,-8.9,-6.8,-31.0,-2.8,-4.6,-48.4,
COc1cc(/C=C/C(=O)c2c(O)cc(C)oc2=O)cc(OC)c1O,i,45.9,-65.4,4.8,-11.7,1.5,44.1,-53.0,
COCCCNCc1cc(C)n(-c2cc(S(=O)(=O)N3CCOCC3)ccc2N2CCCC2)c1C,x,x,-7.9,1.5,5.8,x,x,-1.8,
O=C(CSc1ccc2nnc(-c3cccc(F)c3)n2n1)NCc1ccco1,i,14.5,-0.6,-0.2,-8.8,x,5.8,x,

# Filtered by structure, those above with bromine
SMILES,Rce1 inhib,PABP polyA inh,MT1-MMP act inh,MT1-MMP act inh RFP,UUG fidelity,CSC inhib,eIF4H inh,Env fusion inh,others
Cc1c(Br)c([N+](=O)[O-])nn1C(C)C(=O)N1CCc2ccccc2C1 (centres undefined),i,9.2,0.4,3.9,6.7,11.4,4.8,6.1,
COc1ccc(-c2cn3cccnc3n2)cc1Br,i,2.0,8.3,3.6,x,-15.2,-8.8,-1.9,

# Next structures
SMILES,Rce1 inhib,PABP polyA inh,MT1-MMP act inh,MT1-MMP act inh RFP,UUG fidelity,CSC inhib,eIF4H inh,Env fusion inh,others
O=C(CSc1ncn[nH]1)NCCC(c1ccccc1)c1ccccc1,i,-3.4,8.9,5.3,8.2,-10.7,0.4,x,
CCN(C(=O)c1cc2c(C)nc3ccccc3c2o1)c1cc(Cl)ccc1OC,i,-10.5,-2.8,-26.2,10.3,13.6,6.5,-19.4,
O=C(CN1CCN(c2ccccc2)CC1)Nc1ccc2c(c1)CCC2,i,-3.7,0.5,-1.5,x,0.6,-13.6,-19.0,
CC(C)[C@H](NC(=O)C1CC(=O)N(c2ccc3c(c2)OCO3)C1)C(=O)NC1CCCC1 (some centres undefined),i,u,-5.8,2.3,-14.6,-6.3,u,-6.5,

# High-throughput results as filed in PubChem.

# The list is partial; count on the stated rates, not on these rows.
